High-throughput results as filed in PubChem.
S aureus helic: blocks Staphylococcus aureus DNA helicase; purified S. aureus helicase, fluorescence unwinding assay; about half of the hits fall short of the stated cut; 120,000 compounds, 0.05% hits; inhibition, %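 (tested at about 80 µM)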; AID 485395;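 active means both duplicates at 50% or more, or one of them with a favoured structure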;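 further: 0% = mean of negative control wells and 100% = mean of positive control wells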
MgrA-DNA mod: S. aureus MgrA-DNA binding modulation; AID 602314; inhibition, %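 (about 10 µg/mL by stock and volumes)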; 84,000 compounds, 0.13% hits; fluorescence polarization;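 active means above 50% in either of two replicates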;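 further: 0% = protein plus DNA without compound and 100% = DNA alone without protein; higher means less MgrA bound to DNA so lower polarization; one replicate is shown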
An asterisk follows results filed as active; x = not tested or not shown.

S aureus helic	MgrA-DNA mod	Compound
4	2.0	COc1ccccc1C(c1c(C)[nH][nH]c1=O)C(C#N)C#N (stereo not drawn)
x	1.8	CCCc1c(C(=O)NCc2ccc(OC)c(OC)c2)cnn1-c1ccccc1
-11	x	Cc1nc(-c2ccc(OC(F)F)cc2)cs1
-21	-0.5	Cc1ccc(-c2ccc(O)c(C)c2)cc1
14	-1.2	Cn1c(=O)oc2cc(S(=O)(=O)N3CC(=O)N(CCc4ccccc4)C(=O)C3)ccc21
x	0.2	Cc1nnsc1C(=O)N1CCN(c2ccc(F)cc2)CC1
-18	0.8	CCc1ccc(NC(=O)C(C)Nc2ccc(Br)cc2)cc1 (stereo not drawn)
x	-2.9	Cc1nccc(-c2cccc(NC(=O)c3nc4ccccc4s3)c2)n1
12	-0.1	Cc1ccccc1-c1ccc2cccc(C)c2n1
6	-3.2	CN(Cn1c(=O)oc2ccccc21)C1CCCCC1
-7	x	Cc1ccc2cc(CN(C)C3CCS(=O)(=O)C3)c(Cl)nc2c1C (stereo not drawn)
1	3.4	CC(C)(C)C(=O)CSc1nc2ccccc2n1S(=O)(=O)c1ccccc1
x	1.0	Cc1ccnc(NS(=O)(=O)c2ccc(NC(=O)c3cc4ccccc4oc3=O)cc2)n1
-2	-2.7	C=CCSc1nc2sc3c(c2c(=O)n1CC=C)CCCC3
0	-0.8	COc1cccc(-c2[nH]nc(N)c2C)c1
18	x	CCC1COC(c2cccn2C)=N1 (stereo not drawn)
6	x	COC(=O)c1ccc(CSc2ncnc3sc(C)c(C)c23)o1
-12	x	CN(C)S(=O)(=O)c1ccc2c(c1)nc(CCC(=O)NCC1CCCCC1)n2C
10	-0.5	CCOC(=O)c1ccc(NC(=S)N2CCCN(Cc3cc(C)ccc3C)C2)cc1
x	-0.2	CC(C)C(C#N)C(C#N)C(C)C (stereo not drawn)
x	1.3	S=C(NCc1csc2ccccc12)NCC1CC1
1	0.1	CCn1cc(S(=O)(=O)NCCc2ccccc2)cn1
-5	0.4	Brc1ccc(-c2nc3ccccc3s2)s1
9	x	COc1ccc(NS(=O)(=O)c2ccc(CCN3C(=O)c4cccnc4C3=O)cc2)cc1
35	x	CCC(C)NC(=O)c1ccc2c(c1)NC(=O)C(CC(C)C)N2 (stereo not drawn)
12	x	O=S1(=O)CC(NCc2ccccc2)C(Nc2ccccc2)C1 (stereo not drawn)
x	-0.3	N#Cc1c(N)nc(Sc2ccc(Cl)cc2)c(C#N)c1-c1ccccc1
1	-2.0	Oc1cccc(NCC(O)Cn2ccc3ccccc32)c1 (stereo not drawn)
-8	1.9	O=C(COC(=O)c1c2c(nc3ccccc13)CCC2)c1ccccc1
x	-1.6	COc1cccc2cc(C(=O)O)oc12

Going on with the list.
S aureus helic	MgrA-DNA mod	Compound
0	0.0	CN1C(C(=O)Nc2cccnc2)=CC(c2cccs2)=NS1(=O)=O
-2	x	COc1cccc(NC(=O)C(C)N(C)c2ccccc2)c1 (stereo not drawn)
x	-1.6	O=C(CNC(=O)c1ccccc1F)c1ccc(Cl)cc1
8	4.2	Clc1ccc(NCc2ccc3c(c2)OCO3)cc1
2	x	CCCC(=O)Nc1nc2n(n1)C(c1ccccc1)C=C(c1ccccc1)N2 (stereo not drawn)
7	x	O=C(OCC(=O)N1CCCC1)C1=COCCO1
-7	x	CC1(C)CC(=O)C=C(NNC(=O)C2COc3ccccc3O2)C1 (stereo not drawn)
x	-0.2	c1ccc2sc(-c3ccn[nH]3)cc2c1
3	x	CC(Sc1nncn1-c1ccccc1)C(=O)N(C)c1ccccc1 (stereo not drawn)
1	-0.7	CCCc1nc(SCC(=O)c2ccc3c(c2)NC(=O)CO3)[nH]c(=O)c1CC
8	-6.3	O=C(COc1ccc2ccccc2c1)Nc1ccc(Cc2ccccn2)cc1
-14	x	O=C(NCCCN1CCCC1=O)C1CC(=O)N(Cc2ccco2)C1 (stereo not drawn)
x	-0.8	CSc1nc2ccc(NC(=O)c3cccc(C)c3)cc2s1
5	-0.4	CN(C)c1ccc(/C=N/NC(=O)c2ccccc2)cc1
x	-1.5	Nc1cc(=O)n(Cc2ccco2)c(=S)[nH]1
19	x	CC(=O)NC(C(=O)Nc1ccc(F)c(Cl)c1)C(C)C (stereo not drawn)
x	-1.4	CCc1ccc(/C(C#N)=C/C=C/c2ccccc2)cc1
9	-0.3	CC(C)(CO)NCC(=O)Nc1ccc(Cl)cn1
25	x	Oc1c(C(c2cccs2)N2CCOCC2)sc2ncnn12 (stereo not drawn)
-3	-0.6	COc1cc(C(=O)CBr)cc(OC)c1OC
-10	x	CC(C)N(Cc1ccccc1)C(=O)Cn1ncc2c(=O)oc3ccccc3c21
x	0.9	COc1ccccc1C1CCN(c2ccc(C(F)(F)F)cc2[N+](=O)[O-])CC1
6	x	O=c1[nH]cc(N(CCO)CCO)c(=O)[nH]1
16	x	O=S(=O)(c1ccc(Cl)s1)N1CCN(S(=O)(=O)c2ccc(Cl)s2)CC1
4	-0.5	CC12CCC(C(=O)O)(c3nc4ccc5ncccc5c4nc31)C2(C)C (stereo not drawn)
4	-1.8	CC1CCCCN1C(=O)Cn1c(=O)n(C2CCCC2)c(=O)c2ccccc21 (stereo not drawn)
9	x	Cc1ccc(/C=C/C(=O)OCc2nc3ccccc3c(=O)n2CC#N)o1
-1	x	O=C(/C=C/c1ccc2c(c1)OCO2)NCCn1ccc2ccccc21
5	x	Cc1cc(C(=O)OCC(=O)c2ccc(NC(=O)CC(C)C)cc2)no1
9	x	O=C(COC(=O)C1CC(O)CN1S(=O)(=O)c1ccc(F)cc1)Nc1nccs1 (stereo not drawn)

One compound at a time, from the list above:
`O=C(OCC(=O)N1CCCC1)C1=COCCO1` across the screens: S aureus helic = 7; MgrA-DNA mod = x
`COc1cccc(-c2[nH]nc(N)c2C)c1` across the screens: S aureus helic = 0; MgrA-DNA mod = -0.8

A different layout for part of the listing above.
compound,S aureus helic,MgrA-DNA mod
Cc1cc(C(=O)OCC(=O)c2ccc(NC(=O)CC(C)C)cc2)no1,5,x
O=S(=O)(c1ccc(Cl)s1)N1CCN(S(=O)(=O)c2ccc(Cl)s2)CC1,16,x
CSc1nc2ccc(NC(=O)c3cccc(C)c3)cc2s1,x,-0.8

The listing picks up, starting four compounds before the break.
S aureus helic	MgrA-DNA mod	Compound
9	x	Cc1ccc(/C=C/C(=O)OCc2nc3ccccc3c(=O)n2CC#N)o1
-1	x	O=C(/C=C/c1ccc2c(c1)OCO2)NCCn1ccc2ccccc21
5	x	Cc1cc(C(=O)OCC(=O)c2ccc(NC(=O)CC(C)C)cc2)no1
9	x	O=C(COC(=O)C1CC(O)CN1S(=O)(=O)c1ccc(F)cc1)Nc1nccs1 (stereo not drawn)
x	-0.1	COc1ccc(CC(=O)NCc2cc(C)oc2C(F)(F)F)cc1OC
0	x	CCOC(=O)C1CCCN(CCN(C)C)C1 (stereo not drawn)
7	1.2	CC(c1ccccc1)C(CC(=O)O)C(=O)O (stereo not drawn)
-3	-3.5	COc1ccc(NC(=O)CC#N)cc1OC
2	-0.1	CC(C)=CC(=O)Nc1ccc2c(c1)OCCO2
x	-0.3	NNC(=O)C1c2ccccc2Oc2ccccc21
-7	x	Cc1ccc(C)c(-n2nnnc2SCC(=O)OCC(=O)Nc2ccccc2C)c1
x	3.0	CCOC(=O)c1sc(SCc2ccccc2)c2c1CCCC2=O
x	1.5	FC(F)(F)c1ccc(-c2nnc(SCc3ccc(Cl)cc3)s2)nc1
15	0.1	Cc1ccc(-c2nnc(Nc3ccccc3)c3ccccc23)cc1S(=O)(=O)NC(C)(C)C
x	0.3	Cc1cccc2c1N(C(=S)Nc1cccc(C(F)(F)F)c1)CCC2
x	-3.0	COc1ccccc1NC(=O)NC1CCN(c2nccc(C(F)(F)F)n2)CC1
-2	0.7	CCN(CCO)C(=O)c1ccc(C(C)(C)C)cc1
0	2.0	CCN1C(=O)S/C(=C/c2cc(Br)c(OCC(=O)O)c(OC)c2)C1=O
x	0.4	CC(=O)N1CCN(c2ccc(OCC3CO[C@](Cn4ccnc4)(c4ccc(Cl)cc4Cl)O3)cc2)CC1 (stereo partly drawn)
-8	x	Cc1oc2ncn(CC(C)C)c(=O)c2c1C(=O)NC1CC1
x	0.3	N#CCC1(C#N)CCc2ccccc21 (stereo not drawn)
5	1.6	Nc1ccc(Oc2ccccc2)cc1
-2	x	CC1CN(c2nn(C)c(=O)n(C)c2=O)CC(C)O1 (stereo not drawn)
8	x	CCN(Cc1ccc2c(c1)OCCO2)C(=O)c1c(F)cccc1F
6	-2.3	O=C1NC(=S)N/C1=C\c1cccc(OCc2ccc(F)cc2)c1
13	x	O=C(NC1CCc2ccccc2C1)c1cc2c(=O)oc3ccccc3c2s1 (stereo not drawn)
8	x	COc1ccc(S(=O)(=O)N2CCN(C(C)C(=O)NCc3ccccc3)CC2)cc1 (stereo not drawn)
9	x	CS(=O)(=O)c1cccc(C(=O)NCc2ccccc2)c1
x	29	Cc1ccc(/C=N/c2sccc2C#N)cc1
4	x	O=C(COC(=O)CC1CCS(=O)(=O)C1)Nc1ccc(F)cc1 (stereo not drawn)
-3	x	COc1ccc(Cl)cc1CC(=O)O
11	x	COC(=O)c1ccc(OC(=O)/C=C/c2cccn2C)cc1
-18	x	O=C(CSc1nnc(NC(=O)C2CC2)s1)Nc1ccccc1
11	x	CCOC(=O)c1cc(CSc2n[nH]c(=O)n2-c2ccccc2)on1

Continuation:
S aureus helic	MgrA-DNA mod	Compound
5	-2.4	O=C(c1csc(Nc2cccc3ccccc23)n1)N1CCCCC1
6	16	NC(=O)c1ccc(N2CCCCC2)c(N2C(=O)C3CC=CCC3C2=O)c1 (stereo not drawn)
x	-2.4	COC(=O)C(Cc1c[nH]c2ccccc12)N=Cc1ccccc1 (stereo not drawn)
x	-0.8	CCCCCCCOc1ccc(C(=O)O)cc1
-133	x	N#Cc1c(NCc2ccccc2)ncc2c1Nc1ccccc1C2
-5	x	CC1CCCCN1C(=O)c1ccc(C(=O)c2ccccc2)cc1 (stereo not drawn)
6	x	CCC1(C)Cc2nc3nc(SCC(=O)OC)n(Cc4ccccc4)c(=O)c3cc2CO1 (stereo not drawn)
-13	x	Cc1c(C)c(C)c(C#CCO)c(C)c1C
18	x	O=C(O)c1cccc(S(=O)(=O)NCC(F)(F)F)c1
x	1.1	CN1C(=O)/C(=C2/Sc3ccccc3N2C)SC1=Nc1ccc(O)cc1
2	1.4	O=C(Nc1ccccc1Cl)c1cc2ccccc2oc1=O
-11	x	CC(=O)Oc1cc(C)c2c(=O)c(-c3csc(C)n3)coc2c1
1	-4.2	Cc1nc2cc(N3CCN(C)CC3)c(NC(=O)C(C)(C)C)cc2c(=O)n1Cc1ccccc1
x	0.8	CC(C)(O)C#Cc1ccc(/C=N/O)cc1
4	4.2	Cc1cccc(-c2noc(CCC(=O)NC(C)(C)C)n2)c1
-6	x	Cc1ccnc(SCC(=O)c2cccs2)n1
-4	x	CCOC(=O)c1ccccc1NC(=O)c1ccc(N2CCCC2=O)cc1
13	x	CC(=O)N(Cc1cccs1)C1(C(=O)NC2CCCC2)CCCCC1
8	-0.5	CCN(C(=O)c1cc2cc3ccc(C)cc3nc2s1)c1ccc(C)c(C)c1
-4	x	Nc1ncc(N=Nc2cccc(C(F)(F)F)c2)s1
x	-1.3	Cc1cn(CCC(=O)Nc2nn(C)c3ccccc23)c2ccccc12
7	0.6	O=C(Oc1ccnc2cc(Cl)ccc12)N1CCCCC1
-6	1.2	O=C(CN1CCCCC1)N1CCCc2ccccc21
8	0.9	O=C(CCSc1ccccc1)NC12CC3CC(CC(C3)C1)C2
-22	1.2	O=C(NC12CC3CC(CC(C3)C1)C2)c1cccs1
x	0.7	COc1ccc(C2CC(=O)NN2)cc1OC1CCCC1 (stereo not drawn)
6	-5.3	OCc1ccccc1CNC1CCCCC1
x	-1.8	Cc1[nH]c2ccccc2c1CCC#N
x	-3.2	Cn1c(=O)c(Sc2ccccc2)c(O)c2ccccc21
1	x	CCN(Cc1ccccc1)/C(=N/O)c1ccc(OC)cc1

(continued)
S aureus helic	MgrA-DNA mod	Compound
3	x	COCCNC(=O)c1ccc(CS(=O)(=O)c2ccc(OC)cc2)o1
-6	x	CNS(=O)(=O)c1cccc(C(=O)O)c1
2	2.2	Cc1ccccc1-n1c(SCCc2ccccc2)nc2ccccc2c1=O
1	0.8	O=C1NCN(c2ccccc2)C12CCN(c1nnnn1-c1ccccc1)CC2
-14	0.5	NC(=O)c1nnn(-c2ccccc2)c1N
-6	x	CC(C)CN(CC(C)C)C(=O)CSc1ncn[nH]1
17	x	COc1ccccc1NC(=O)c1c(N)n[nH]c1C
8	8.1	Cc1ccc(C2=NN=C(NC(=O)CSc3nnc(C)s3)SC2)cc1
-9	x	CN(C(=O)CSc1nnc(C(F)(F)F)n1N)C1CCS(=O)(=O)C1 (stereo not drawn)
-40	x	O=C(C1c2ccccc2C(=O)N2CCc3ccccc3C12)N1CCN(Cc2ccccc2)CC1 (stereo not drawn)
x	3.2	Cc1c(NC(=O)c2nn3c(c2Cl)NC(c2cccs2)CC3C(F)(F)F)c(=O)n(-c2ccccc2)n1C (stereo not drawn)
-5	x	Cc1ccc(C(=O)OCC(=O)N2CCCC2)c(O)c1
2	-1.4	c1ccc(Sc2ncnc3sc4c(c23)CCCC4)cc1
13	x	O=C1c2ccccc2-c2nc(=O)c3c4c(sc3n21)CCCC4
6	-0.3	CCC(=O)N/N=C/c1ccc(-c2ccc(Cl)cc2)o1
9	x	CCCNS(=O)(=O)c1cc2c3c(c1)C(C)C(=O)N3CCC2 (stereo not drawn)
-5	x	CCC(c1nnc(Sc2nc(C)nc3sc4c(c23)CCCC4)n1CCN1CCOCC1)N(C)C (stereo not drawn)
7	1.9	CC(=O)N1CCN(c2nc(-c3ccccc3)c3ccccc3n2)CC1

Copied from above, three compounds:
S aureus helic	MgrA-DNA mod	Compound
3	x	COCCNC(=O)c1ccc(CS(=O)(=O)c2ccc(OC)cc2)o1
-6	x	CNS(=O)(=O)c1cccc(C(=O)O)c1
2	2.2	Cc1ccccc1-n1c(SCCc2ccccc2)nc2ccccc2c1=O

These rows are one share of the data; rates above refer to the full screens.
